From PubChem BioAssay
H5N1 CPE – antiviral screen in MDCK cells, H5N1 avian flu | cytopathic effect, luminescence, 72 h; active compounds read high; no value below 0 was filed and about half of the inactive calls have no number; reference of the scale not given here | inhibition, % at 50 µM | 96,000 compounds, 0.07% hits | AID 740; in the data active = inhibition above about 25%
Starred values were filed as active, the others as inactive; i = inactive. Some of the compounds tested (hit frequency here may not be typical).

mol | H5N1 CPE
CC(C)c1[nH]nc2c1C1(CCN(Cc3ccccc3)CC1)C(C#N)=C(N)O2 | i
Nc1ccc(N2CCN(C(=O)c3ccco3)CC2)cc1 | 2.9
COc1cccc(Nc2ncnc3c2cnn3C)c1 | 0.1
COC(=O)COc1ccc(S(=O)(=O)Nc2ccc(NC(C)=O)cc2)cc1C | 0.8
CC(C)CN1CN(S(=O)(=O)c2cccs2)c2nc3ccccc3nc21 | 0.8
O=S(=O)(c1ccccc1)c1nc(-c2ccco2)oc1NCCN1CCOCC1 | 0.5
Cc1c(C(=O)O)sc2ncn(C)c(=O)c12 | i
Cc1ccc(NCc2nnc(SCC(=O)OC3CCCCC3)o2)c(C)c1 | 0.6
CC(=O)C1C(c2ccc(F)cc2)NC(=O)NC1(O)C(F)(F)F (stereo unspecified) | 0.3
COc1ccc(N2CCN(C(c3ccccc3OC)c3nnnn3C3CCCC3)CC2)cc1 (stereo unspecified) | i
COc1ccc(-c2nc(CS(=O)CC(=O)NCc3ccco3)c(C)o2)cc1OC (stereo unspecified) | 0.7
COC(=O)CNc1nc(-c2cccnc2)nc2ccccc12 | 0.4
O=C(c1ccc(F)cc1)N1C2CCC1CC(O)(c1ccccc1F)C2 (stereo unspecified) | 0.2
O=C(Nc1cccnc1)c1ccc(NC(=O)c2ccco2)cc1 | i
Cc1noc(/C=C/N(C)C)c1S(=O)(=O)N1CCCC(C(=O)NCc2cccs2)C1 (stereo unspecified) | 0.4
CCc1nnc(NS(=O)(=O)c2ccc(N3C(=O)C4CC=C(Cl)CC4C3=O)cc2)s1 (stereo unspecified) | 0.7
CC(C)(C)n1ncc2c(=O)n(CC(=O)NC3CCCCC3)cnc21 | i
CN(C1CCCCC1)S(=O)(=O)c1ccc(Cl)c(C(=O)O)c1 | 0.1
CC(C)C(=O)NC(NCC1CCCO1)C(Cl)(Cl)Cl (stereo unspecified) | i
COc1ccc(C2(CNC(=O)c3ccco3)CCOCC2)cc1 | 1.8
Cc1cc(NC(=O)CCCS(=O)(=O)c2nc(-c3cccs3)cc(C(F)(F)F)n2)no1 | i
CC(=O)c1sc2ccccc2c1OC(=O)c1ccco1 | i
COc1ccc(C)cc1NC(=O)C1CCCN1S(=O)(=O)c1ccc2c(c1)CCC(=O)N2 (stereo unspecified) | 1.3
Cn1c(SCc2ccc(F)cc2)nnc1-c1cccs1 | 0.7
Cc1cccc(NC(=O)C2CCN(S(=O)(=O)c3cccs3)CC2)n1 | i
CC(C)C(=O)Nc1cccc(NC(=S)NC(=O)C(c2ccccc2)c2ccccc2)c1 | i
COc1cccc(C2=NOC(C(=O)NCc3ccccc3)C2)c1 (stereo unspecified) | i
COC(=O)c1cc(OC)ccc1-c1ccc(OC)cc1 | i
O=C(Nc1ccccc1C(=O)N1CCOCC1)c1ccncc1 | 0.2
COc1ccccc1NC(=O)CNC(=O)c1ccc(F)cc1 | i
COc1cc(C(=O)Oc2c(CN3CCOCC3)cc(Cl)c3cccnc23)cc(OC)c1OC | 0.4
COc1cccc(C2C3(C#N)C(N)=NC(OC)(OC)C23C#N)c1 (stereo unspecified) | 1.7
Cc1ccc(C)c(-n2c(SCC(N)=O)nnc2-c2ccccn2)c1 | 0.9
Cc1ccc2[nH]c(C)c(CC(=O)O)c2c1 | i
CCOc1cccc(-c2nn3c(-c4ccccn4)nnc3s2)c1 | 5.6
CCOC(=O)C1=C(N)N(c2ccc(N3CCCCC3)cc2)C(=O)C1 | 0.2
CCNc1nc(NC(C)C)nc(NS(=O)(=O)c2ccc(Cl)cc2)n1 | i
Cc1coc(C)c1C(=O)CC1(O)C(=O)N(CCc2ccccc2)c2ccccc21 (stereo unspecified) | i
NC(=S)Nc1cnc2ccccc2c1 | 1.7
CCN(CC)S(=O)(=O)c1ccc2c(c1)c(=O)c(C(=O)NCCOC)cn2C | 1.4
COc1ccc(CNC(=O)CSc2ncnc3nc[nH]c23)cc1 | 0.2
COCCn1c(COc2ccc(Cl)cc2)nnc1SCC(N)=O | 0.2
Cn1c(=O)c2cn(Cc3ccc(Cl)cc3)cc2n(C)c1=O | 0.7
c1ccc2c(c1)nnn2Cc1nnc2sc(-c3ccc4c(c3)OCCO4)nn12 | 3.2
COCc1cc(=O)[nH]c2cc(NC(=O)C3CC3)c(C)cc12 | i
CC(=O)c1c(C)[nH]c(C(=O)COc2cc(C)cc(C)c2)c1C | i
CC(C)(C)Nc1nc(C(N)=O)nc(N2CCOCC2)n1 | 3.3
CCOc1ccc(OCC)c(NC(=O)CN2CCN(c3cccc(C)c3)CC2)c1 | i
CCOC(=O)c1cccc([P+](=O)O)c1 | i
COc1ccc(C(=O)Nc2ccc(NC(=O)c3cnccn3)cn2)cc1 | i

Remaining list, next part.
mol | H5N1 CPE
COc1cccc(N(C(=O)Cn2nnc3ccccc32)C(C(=O)NCc2ccco2)c2cccnc2)c1 (stereo unspecified) | 0.1
CCN=C1SC(C(=O)Nc2ccc(Cl)c(Cl)c2)CC(=O)N1CC (stereo unspecified) | i
CCc1ccc(OCC(=O)Nc2ccc(S(=O)(=O)N3CCCC3)cc2)c(Br)c1 | i
COCCNC(=O)c1c(N)n(-c2ccccc2)c2nc3ccccc3nc12 | 0.1
CC(C)c1ccc(CN2CC(C(=O)O)CC2=O)cc1 (stereo unspecified) | 1.0
CC(C)(C)c1ccc(/C([O-])=C(/C(=S)NCc2ccco2)[n+]2ccccc2)cc1 | 1.6
Cc1ccc(NC(=O)CN(C)C(=O)CSc2nc3ccccc3o2)cc1 | 0.2
COc1ccc(C(=O)OCCN2CCOCC2)cc1OC | 0.3
CCCn1c(=O)c(C(=O)NCc2cccnc2)c(O)c2ccccc21 | 0.1
Cc1[nH]c2ccc(F)cc2c(=O)c1SC(F)(F)C(F)F | i
COc1cccc(NC(=O)n2nc(N)cc2-c2ccc(Cl)cc2)c1 | 1.3
Cc1ccc2c(c1)N(CC(=O)N1CCCCCC1)C(=O)CO2 | i
CC1CCC2(CC1)NC(=O)N(Cc1nc(-c3ccccc3)no1)C2=O (stereo unspecified) | i
Oc1ccc(N=Cc2ccc(O)c(O)c2)cc1 | 1.5
CCC(=O)Nn1c(C)nnc1C | i
CCC(Sc1nncn1C)C(=O)Nc1nnc(-c2ccc(Cl)cc2)s1 (stereo unspecified) | 0.2
O=C(O)c1cnn2c(C(F)(F)F)cc(-c3ccccc3)nc12 | i
CCNC(=O)CN(c1ccc(C)cc1)S(=O)(=O)c1ccccc1 | 0.3
CCCNC(=O)c1cc(SC)ccc1Cl | i
Cc1ccc(C)c(NC(=O)CN(C)S(=O)(=O)c2ccc(F)cc2)c1 | 1.2

(list continues)
molecule | H5N1 CPE
O=C(NNC(=O)c1cc(OCC(F)(F)F)ccc1OCC(F)(F)F)c1ccc(Cl)c(Cl)c1 | i
CCOC(=O)c1ccc(NC(=O)C(=O)NCC2CCCO2)cc1 (stereo unspecified) | i
O=c1c2ccccc2nnn1CSc1nnc(Nc2ccccc2)s1 | 0.1
Cc1cnc(C(=O)OCC(=O)NCCc2ccccc2)cn1 | 0.9
CC1(C)C(c2cccs2)=[N+]([O-])C2(CCCCC/C2=N\NC(N)=O)N1O (stereo unspecified) | 0.1
COC(=O)CNC(=O)c1cccs1 | 0.5
O=C(NC1CCCCC1)c1ccc(Cn2cc(Br)cn2)o1 | i
CC1CCCCC12NC(=O)N(Cn1nnc3ccccc3c1=O)C2=O (stereo unspecified) | i
CN(C(=O)c1ccncc1)C1CC(C)(C)N(O)C(C)(C)C1 | 0.2
CCCCn1nc(CC(=O)O)c2ccccc2c1=O | i
COc1nc(C#N)c(N2CCOCC2)o1 | i
CCCCCCOc1ccc(OCC(O)CN2C(=O)NC(C)(C)C2=O)cc1 (stereo unspecified) | 0.1
COc1ccc(C2C3=C(CC(C)(C)CC3=O)Nc3c2c(=O)[nH]c(=O)n3Cc2ccccc2)cc1OC (stereo unspecified) | i
O=C(COC(=O)c1cc(S(=O)(=O)N2CCOCC2)c(Cl)cc1Cl)Nc1ncc(C(F)(F)F)cc1Cl | 0.5
Cn1c(=O)c2c(nc(-n3ccnc3)n2Cc2ccc(Cl)cc2Cl)n(C)c1=O | 2.2
COc1ccccc1Nc1nc(N)nc(CN2CCOCC2)n1 | i
Cc1occc1C(=O)Nc1nn[nH]n1 | 0.4
NC(=O)c1cccc(S(=O)(=O)N2CC(c3ccccc3)CC2=O)c1 (stereo unspecified) | 1.5
COc1ccc(C(=O)OCC(=O)Nc2ccc(F)c(F)c2)cc1OC | i
COc1ccc(NC(=O)/C=C/c2cc(Br)ccc2OC)cc1 | 1.3
CCOC(=O)NC(=O)CN1C(=O)NC(C)(c2ccccc2)C1=O (stereo unspecified) | 0.4
COC(=O)Cc1c(C)nc2nc(-c3ccco3)[nH]n2c1=O | i
O=C(Nc1ccc(F)cc1F)N1CCN(C/C=C/c2ccccc2)CC1 | i
CCC(=O)Nc1c2c(nn1-c1ccc(OC)cc1)CS(=O)C2 (stereo unspecified) | 0.8
Cc1ccnc(NC(=O)c2ccc([N+](=O)[O-])o2)c1 | i
COC(Cn1c(C)c(C(C)=O)c(C(C)=O)c1C)OC | i
CN(C(=O)c1cccc(C#N)c1)c1nnc(-c2ccncc2)s1 | 0.6
CC(=O)OC1=Cc2c(ccc3ccc(=O)oc23)OC1(C)C | i
Cc1coc(NC(=O)CSc2nc(-c3ccncc3)cc(C(F)(F)F)c2C#N)n1 | 0.4
COc1cc(NC(=O)C23CC4CC(C2)CC(n2nnc(C)n2)(C4)C3)c(OC)cc1Cl | i
COc1ccc(NC(=O)CC2C(=O)N(c3ccc(Cl)cc3)C(=S)N2CCc2ccncc2)cc1 (stereo unspecified) | i
O=C(c1cc(N2CCCCC2)nc2ccccc12)N1CCOCC1 | 0.7
CC(=O)Nc1c(Cl)n(C(C)=O)c2ccccc12 | 0.1
COC(=O)c1sccc1NC(=O)CSc1ccc(Cl)cc1 | 0.1
Cc1nn(CCOc2ccccc2)c(=O)n1-c1ccccc1F | i
Cn1c(Cn2c(=O)sc3ccccc32)nnc1SCC(=O)Nc1cccc(Cl)c1 | 0.0
Cc1nc(CS(=O)(=O)c2ccccc2)cc(Sc2ccc(Cl)cc2Cl)n1 | 3.2
O=C(CSc1nn(-c2ccc(Cl)cc2)c(=S)s1)N1CCN(C(=O)c2ccco2)CC1 | 1.8
Clc1ccc(/C=C/c2nc3ccccc3[nH]2)c(Cl)c1 | i
Cc1cc(OCc2ccc([N+](=O)[O-])cc2)c2c3c(c(=O)oc2c1)CCCC3 | 0.6
COc1cccc(C(=O)n2cnnc2N)c1OC | i
C=CCN1CCN(C(CC(C)C)c2nnnn2CCOC)CC1 (stereo unspecified) | i
CCOC(=O)c1cc(NC(=O)C2C3CCC(O3)C2C(=O)O)cc(C(=O)OCC)c1 (stereo unspecified) | i
COc1cc2cc(CN(CCO)S(=O)(=O)c3ccccc3)c(=O)[nH]c2cc1OC | 0.8
COC(=O)COc1cccc(-n2cnnn2)c1 | i
Cc1ccc2nc(S(=O)(=O)O)[nH]c2c1 | 0.8
N#Cc1c(N)c(C(=O)c2ccc(Br)cc2)n2c1CCC2 | 2.0
COc1cccc(CN2CC(O)=C(c3nc(-c4ccc(Cl)cc4)cs3)C2=N)c1 | i
CCSc1nnnn1-c1ccccc1 | i
O=C(CSCc1c(Cl)cccc1Cl)NN1C(=O)c2ccccc2C1=O | 0.5
CC1(C(=O)c2ccccc2)C2c3c(ccc4ccccc34)OC(=O)C21C(=O)N1CCOCC1 (stereo unspecified) | 0.3
CCCCNC(=O)c1c[nH]c2ccc(S(=O)(=O)Nc3ccc(OCC)cc3)cc2c1=O | i
CCC(=O)Nc1nnc(SCC(=O)c2ccc3c(c2)Cc2ccccc2-3)s1 | 0.9
COC(=O)c1cn(-c2ccccc2)nc1C(=O)OC | i
N#CC1=C(N)Oc2cc(Nc3ccccc3)ccc2C1c1ccncc1 (stereo unspecified) | 0.6
C=CCN(CC=C)c1cnn(-c2nc3ccccc3[nH]2)c(=O)c1Cl | 1.7
CC(NC(=O)NCC1CCCO1)(C(F)(F)F)C(F)(F)F (stereo unspecified) | i
CCOc1ccc(-c2nc(=S)[nH][nH]2)cc1 | 1.1
O=C1NC(=S)N/C1=C/c1cccc([N+](=O)[O-])c1O | 0.2
CS(=O)(=O)N1CCN(c2ccc([N+](=O)[O-])c(NCCN3CCOCC3)c2)CC1 | 0.2

Next section:
molecule | H5N1 CPE
CC(C)c1ccc(C2C(C#N)=C(N)N3C(=C2C#N)Sc2ccccc23)cc1 (stereo unspecified) | i
CC(C)[C@H](N)c1nnc(SCC(=O)c2ccc(Cl)cc2)o1 | i
Cc1nnsc1NC(=O)OCC(C)C | 0.9
Cc1ccc(-n2c(-c3cccnc3)n[nH]c2=S)c(C)c1 | 0.3
COc1ccc(Cl)cc1N(CC(=O)Nc1ccc2c(c1)OCCO2)S(C)(=O)=O | i
